MgrA-DNA mod – S. aureus MgrA activity modulators, primary screen, biochemical, S. aureus Newman, fluorescence polarization. MgrA-DNA binding. inhibition, %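 (about 10 µg/mL by stock and volumes)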. 0.13% of 84,000 active;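 active = above 50% in either of two replicates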;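 note: 0% = protein plus DNA without compound and 100% = DNA alone without protein; higher means less MgrA bound to DNA so lower polarization; one replicate is shown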
Sa helicase inh – inhibitors of S. aureus replicative helicase, primary screen, biochemical, fluorescence unwinding readout; replicative DNA helicase (DnaC/DnaB), Staphylococcus aureus; purified S. aureus helicase, fluorescence unwinding assay; about half of the hits fall short of the stated cut; inhibition, %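 (tested at about 80 µM)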; 0.05% of 120,000 active; AID 485395, 2010;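 active = both duplicates at 50% or more, or one of them with a favoured structure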;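 note: 0% = mean of negative control wells and 100% = mean of positive control wells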
Starred values were filed as active, the others as inactive; . = no result given.

Start of the data: the first 2 entries (preview)
SMILES	MgrA-DNA mod	Sa helicase inh
c1ccc(CCCN2CCN(C3CCCC3)CC2)cc1	-3.6	-1
CCc1nc2ccccc2c(C(=O)OCc2ccc(C#N)cc2)c1C	-1.1	-17

All compounds of this part (from the top)
SMILES	MgrA-DNA mod	Sa helicase inh
c1ccc(CCCN2CCN(C3CCCC3)CC2)cc1	-3.6	-1
CCc1nc2ccccc2c(C(=O)OCc2ccc(C#N)cc2)c1C	-1.1	-17
CSCCC1NC(=O)N(Cc2c(Cl)cccc2Cl)C1=O (centres undefined)	.	-7
Cc1ccc(S(=O)(=O)N2CCN(C(=O)N(C)c3ccccc3)CC2)cc1	.	6
O=C(Cn1cc2c(n1)CCCCC2)NCc1ccccc1	.	7
COc1ccc(-c2c(C#N)c(N)nc3sc(C(N)=O)c(N)c23)cc1OC	-8.6	.
Oc1cc2[nH]c3ccccc3c2cc1CN1CCOCC1	.	-7
Cc1nc2ccccc2n(CC(=O)Nc2cc(Cl)cc(Cl)c2)c1=O	-0.7	-3
CC(=O)N1c2ccc(S(=O)(=O)N3CCCC3C(=O)N3CCN(c4ccccc4)CC3)cc2CC1C (centres undefined)	.	-13
CC1(C)c2cc(Cl)ccc2-n2c1cc(O)c(-c1ccccc1)c2=O	-0.9	.
COc1ccc2[nH]cc(S(=O)(=O)c3ccccc3)c(=O)c2c1	.	4
COc1ccc(N2CCN(C(C)C(=O)N3CCCC3)CC2)cc1 (centres undefined)	-5.8	2
CN(c1ncnc2c1nc1n2CCCCC1)C1CCCCC1	-0.8	-1
CCNc1nc(Oc2ccc(=O)[nH]n2)nc(N2CCOCC2)n1	0.8	3
Cc1ccc(C(=O)OCC(=O)Nc2ccccc2C)cc1C	-1.3	-10
O=C(O)C1Cn2c(nc3c(c2=O)C2(CCCC2)Cc2ccccc2-3)S1 (centres undefined)	.	9
CCC(=O)NC(c1ccccc1)c1nc2ccccc2[nH]1 (centres undefined)	0.4	14
O=C(c1ccc(-c2ccccc2F)cc1)N1CCCCCC1	-1.0	.
Cc1[nH]c(=S)[nH]c1C12CC3CC(CC(C3)C1)C2	1.4	-2
CC(=O)NCCOc1c(C)cccc1C	1.5	1
O=C(Nc1nn2cnnc2s1)c1ccc(S(=O)(=O)N2CCc3ccccc3C2)cc1	.	16
CNC(=O)CCc1nc(-c2ccccc2)no1	2.0	-14
Cc1nc(N2CCCCC2)sc1C1Sc2ccccc2NC1=O (centres undefined)	.	6
Cc1cccc(CC(=O)NCc2ccc3[nH]c(C)cc3c2)c1	-1.0	4
CC(C)(C)c1nc2ccc(N)cc2[nH]1	-7.2	4
Nc1c(C(=O)NCc2ccccc2)c2nc3ccccc3nc2n1/N=C/c1ccco1	.	13
C=CCn1c(O)c(N=NC(=O)OC)c2cc(Br)ccc21	.	29
CC1(C)Cc2c(ccc3ccccc23)C(=NCCC(=O)O)N1	1.1	0
Clc1ccc(CSC2=NCCCN2C2CCCCC2)cc1	-3.0	.
COc1cc(/C=C2/C(=O)N(c3ccc(C(C)=O)cc3)N=C2C)ccc1OCc1ccccc1	0.5	.

Part of the list above in order of count of non-hydrogen atoms, descending.
SMILES	MgrA-DNA mod	Sa helicase inh
CC1(C)c2cc(Cl)ccc2-n2c1cc(O)c(-c1ccccc1)c2=O	-0.9	.
Cc1cccc(CC(=O)NCc2ccc3[nH]c(C)cc3c2)c1	-1.0	4
O=C(Cn1cc2c(n1)CCCCC2)NCc1ccccc1	.	7
CC(=O)NCCOc1c(C)cccc1C	1.5	1
CC(C)(C)c1nc2ccc(N)cc2[nH]1	-7.2	4

Following part.
SMILES	MgrA-DNA mod	Sa helicase inh
COc1ccc(CNC(=O)C(C)Sc2nc(C)c(C)n2CC(C)C)cc1 (centres undefined)	.	22
N#CC1(NC(=O)CSc2nc3ccccc3o2)CCCCC1	.	5
O=C(O)CC1(CC(=O)Nc2ccc3c(c2)OCCCO3)CCCCC1	-2.2	.
O=C(CN1C(=O)/C(=C\c2ccc(F)cc2)Oc2ccccc21)NCC1CCCO1 (centres undefined)	.	24
COc1cc(/C=c2\sc3nc4ccccc4n3c2=O)c(Br)cc1OCC(=O)O	1.5	.
Nc1ccccc1NS(=O)(=O)c1cccs1	.	-15
N#CCc1ccc(OC(=O)Nc2ccccc2)cc1	-3.4	.
O=C(O)CCC(=O)N1CCOCC1	3.4	-12
COc1cc2c(cc1OC)CN(C(=O)C1CCCN(C(=O)c3ccc(Cl)cc3)C1)CC2 (centres undefined)	.	-2
S=C1CC(c2ccccc2)Sc2ccccc2N1 (centres undefined)	-2.8	.
CCOC(=O)c1c(NC(=O)OC)sc2c1CCCC2	-0.8	-2
Cc1cccc(NCN2C(=O)CCC2=O)n1	-1.1	.
CN(CC1COc2ccccc2O1)C(=O)NC12CC3CC(CC(C3)C1)C2 (centres undefined)	.	-7
CCOc1ccc(CCNC(=O)c2ccc3c(c2)NC(=O)C2CCCN32)cc1OCC (centres undefined)	.	-17
Cc1occc1C(=O)NN=C1c2ccccc2-c2ccccc21	1.4	0
CCn1c(=O)[nH]c2ccc(S(=O)(=O)N(C)C)cc21	.	0
Brc1ccc(-c2nnc(SCCC3OCCCO3)o2)cc1	.	30
CCOC(=O)c1cc2cc(Br)ccc2oc1=O	.	-16
O=C(O)CNC(=O)c1ccccc1Cl	-0.5	.
CC(C)N=C1NC(=NC(C)C)c2ccccc21	.	11
C=C(C)Cn1c(CCCNC(=O)c2ccccc2OC)nc2ccccc21	-0.4	14
Cc1cc(C)nc(Nc2ccc(NS(=O)(=O)/C=C/c3ccccc3)cc2)n1	.	-22
CCOc1cc2[nH]c(=S)n(CCCN3CCC(C)CC3)c(=O)c2cc1OCC	.	0
COc1ccc(C(=O)COc2coc(CN3CCc4ccccc4C3)cc2=O)cc1	.	17
O=C1Nc2ccc(F)cc2C1(O)Cc1ccncc1 (centres undefined)	-2.1	.
CC1CCN(c2nc(-c3ccccc3)ns2)CC1	-2.0	.
Cc1ccc(NC(=O)C(=O)NCCN2CCN(Cc3ccccc3F)CC2)cc1Cl	0.7	.
O=C(O)C1CCCN1C(=O)c1ccco1 (centres undefined)	-6.1	17
CC(Sc1nnc(-c2cccs2)n1C1CC1)c1nnc(-c2cccs2)o1 (centres undefined)	.	-1
O=C(CN1C2=NCCN2c2ccccc21)c1ccc(Cl)cc1Cl	0.9	15
CSc1cccc(NC(=O)/C=C/c2ccc(C(C)C)cc2)c1	-1.6	.
Cc1ccsc1C(O)c1nnc(-c2ccccc2)o1 (centres undefined)	.	-14
Cc1ccccc1Nc1nc(N)nc(COC(=O)Cc2cccs2)n1	.	-3
COc1cccc(CNC(=O)CCCN2C(=O)c3cccnc3Oc3ccc(Cl)cc32)c1	.	19
CCOC(=O)c1cn2cc(Cl)ccc2n1	.	-14
CCC(Sc1nnc2c3ccccc3n(C)c2n1)C(=O)Nc1nnc(C(F)(F)F)s1 (centres undefined)	.	-19
CCO/C=C1/SC(=S)N(c2cc(OC)cc(C(F)(F)F)c2)C1=O	-2.1	.
Clc1ccc(-c2ncnn2-c2ccccc2)c(Cl)c1	-1.4	13
Nc1nc2c(-c3ccc(Br)cc3)nnn2c2ccccc12	0.9	.
CN1C(=O)CC(C(=O)Nc2ccccc2F)SC1=Nc1ccc(Cl)cc1 (centres undefined)	.	-35
O=C(c1ccc(N2CCCC2=O)cc1)N(Cc1ccco1)Cc1cccs1	.	-6
O=C(O)C12CCCC(CBr)(CCC1)C2	0.3	5
Cc1cc(Nc2ccc(C(=O)O)cc2)c2cc(Cl)ccc2n1	.	-25
COc1cc(SC)ccc1C(=O)N1CCc2ccccc2C1	0.4	15
Nc1noc2c1C(c1ccc(F)c(Oc3ccccc3)c1)C1=C2CCCC1=O (centres undefined)	1.8	13
CN(C)S(=O)(=O)c1ccc(S(=O)(=O)N2CC=C(c3ccc(F)cc3)CC2)cc1	-1.8	3
COc1cccc(CC(C)C(N)=O)c1 (centres undefined)	-0.8	-17
O=C(CN1CCN(CC(=O)c2ccccc2)CC1)c1ccccc1	.	-31
CCOC(=O)c1sc(SCC(=O)c2ccc(Cl)cc2)nc1C	0.2	.
O=C(CSc1c2c(nc3ccc(Cl)cc13)CCCC2)NCc1ccccn1	-1.1	10

Carrying on:
SMILES	MgrA-DNA mod	Sa helicase inh
CCN(CC)C(=O)Cc1cc(OC)c(OC)cc1Br	3.3	25
N#Cc1ccccc1-n1cccc1	-1.1	.
c1ccc(CNC2CCCc3c2[nH]c2ccc(-c4ccccc4)cc32)cc1 (centres undefined)	-0.9	-17
CCn1c(/C=N/NC(=O)Cc2ccccc2)nc2ccccc21	.	7
C=CCn1c(SCc2ccc(C(=O)NCCO)cc2)nc2ccccc2c1=O	.	4
O/N=C/c1ccc(Br)s1	2.0	.
CN1CCN(Cc2cc3sccc3n2Cc2ccc(F)cc2)CC1	-2.5	4
O=C(NCCNc1nccc(C(F)(F)F)n1)Nc1ccccc1Cl	.	-21
O=C(O)C1CCCCC1C(=O)Nc1ccc2c(c1)OCCO2 (centres undefined)	-0.8	-2
COc1ccc2oc(C)c(C(N)=O)c2c1	-1.9	6
O=C(NCCCN1CCOCC1)c1ccc2c(=O)n(CCCN3CCCC3=O)c(=S)[nH]c2c1	0.8	10
Cc1ccc(C)c(CSc2ncnc3ccccc23)c1	.	-1
COC(=O)c1ccc(Cl)cc1OC(=O)c1ccccc1	2.5	2
COc1ccc(-c2cc(C(F)(F)F)nc(SCCC(=O)N(C)Cc3ccccc3)n2)cc1	-2.0	0
Cc1nnc(SCC(=O)N2CC3(C)CC2CC(C)(C)C3)[nH]c1=O (centres undefined)	.	-5
COc1cccc(CNc2cccc(F)c2)c1	2.1	-3
COc1cc(OC)cc(-c2nc3ccccc3c(=O)n2NC(=O)/C=C/c2ccccc2Cl)c1	-1.1	.
CCOC(=O)c1c(-c2ccccc2)oc2c1cc(OC(=O)c1ccc(Cl)cc1)c1ccccc12	1.4	.
CCCCn1c(CCNC(=O)CC)nc2ccccc21	.	-13
Cc1cccc(CCNC(=O)CCc2nnc3n(Cc4ccccc4)c(=O)c4ccccc4n23)c1	3.6	6
O=C(/C=C/c1ccc(Cl)cc1)NCc1ccccc1	-4.7	9
CN(C)S(=O)(=O)c1ccc(SCC(=O)NC2CCCc3ccccc32)nc1 (centres undefined)	.	-1
CCc1ccccc1NC(=O)CCSc1nc(-c2ccco2)cc(C(F)(F)F)n1	.	-14
OCCCCNc1cccc2ccccc12	2.5	8
Cc1cc2c(C)nc(-c3ccccc3)nc2o1	.	16
CCc1cc2c(NCCCN3CCOCC3)nc(C)nc2s1	-12	6
CCOc1ccc(NC(=O)CN(C)c2nnnn2-c2ccccc2)cc1OCC	.	-5
Cc1ccc(N2N=C(c3ccccc3)CC2c2ccc3c(c2)OCO3)cc1 (centres undefined)	-0.1	.
Cc1n[nH]c(=O)c2c(NC(=O)COC(=O)C3(c4ccc(Cl)cc4)CCC3)oc(C)c12	.	1
COc1cc(C=NCCN=Cc2cc(OC)c(OC)c(OC)c2)cc(OC)c1OC	-2.5	.
CNC(=O)c1sc2nc(-c3ccccc3)cn2c1C	-0.2	13
COc1ccc(/C=C2/SC(=O)N(CNc3cccc(Cl)c3)C2=O)cc1OC	0.2	.
Cc1c(NC(=S)NC(=O)c2sc3ccccc3c2Cl)c(=O)n(-c2ccccc2)n1C	0.5	.
Cc1cccn2c(=O)c3cc(C(=O)N4CCCCC4)sc3nc12	.	7
CCOC(=O)c1c(-c2ccccc2)oc2cc(Br)c(OCC(N)=O)cc12	1.6	5
COc1ccc(-c2cc(C(=O)O)c3ccc(C)cc3n2)cc1	-0.1	.
O=C(O)C(C(=O)O)C12OC3C4C5CC(C6C5C3C61)C42 (centres undefined)	.	9
CN1C(=O)S/C(=C\C(=O)O)C1=O	.	5
C=CCc1c(C)nc(OCC(=O)OCC)c(C#N)c1C	-0.5	.
O=c1c(-c2ccccc2)c(O)c2cccc3c4c(n1c23)CCCC4	-0.9	.

Taken from above (7 entries):
SMILES	MgrA-DNA mod	Sa helicase inh
CNC(=O)c1sc2nc(-c3ccccc3)cn2c1C	-0.2	13
COc1ccc(/C=C2/SC(=O)N(CNc3cccc(Cl)c3)C2=O)cc1OC	0.2	.
Cc1c(NC(=S)NC(=O)c2sc3ccccc3c2Cl)c(=O)n(-c2ccccc2)n1C	0.5	.
Cc1cccn2c(=O)c3cc(C(=O)N4CCCCC4)sc3nc12	.	7
CCOC(=O)c1c(-c2ccccc2)oc2cc(Br)c(OCC(N)=O)cc12	1.6	5
COc1ccc(-c2cc(C(=O)O)c3ccc(C)cc3n2)cc1	-0.1	.
O=C(O)C(C(=O)O)C12OC3C4C5CC(C6C5C3C61)C42 (centres undefined)	.	9

The listing continues:
SMILES	MgrA-DNA mod	Sa helicase inh
O=C(Nc1cccc(Br)c1)c1ccc(OC2CSC2)cc1	-6.1	-1
CCS(=O)(=O)CCSc1nc(-c2ccccc2)cc(-c2ccccc2)c1C#N	5.2	11
CC(c1ccc(S(N)(=O)=O)cc1)N(C)c1ncnc2sccc12 (centres undefined)	.	6
Cc1cc(=O)oc2cc(OCC(=O)OC(C)C(=O)Nc3ccc(S(N)(=O)=O)cc3)ccc12 (centres undefined)	.	12
O=C(O)c1oc2ccccc2c1CSc1ccccn1	-5.7	5
O=c1c2ccccc2nc(-c2ccccc2)n1O	0.5	.
O=C(NCCN1CCCCCC1)c1ccc(CS(=O)(=O)c2c(Cl)cccc2Cl)o1	.	15
CC1CN(C(=O)c2ccc(Br)o2)CC(C)O1 (centres undefined)	0.2	0
CC1CCc2c(sc(NC(=S)NC(=O)c3ccn(C)n3)c2C(N)=O)C1 (centres undefined)	1.2	4
O=C(NC1CCCCC1)c1noc2c1CCCCC2	0.6	4
CCOC(=O)C1CCN(C(=O)c2nn(-c3ccccc3)nc2C)CC1	.	-16
Cc1ccc(CSC2=NCCN2)cc1	-1.0	.
O=C1CC2(CCCC2)C(=O)N1	.	-11
CC(C)NC(=O)Cn1c(=O)cnc2ccccc21	.	18

This is a subset; rates above refer to the full screens.
